High-throughput results: PubChem, several laboratories
Beta2AR agonist = activates human beta-2 adrenergic receptor causing internalization; response, % (test concentration not listed); P07550; Am2.2-beta2AR cells, FAP receptor internalization, flow cytometry; reference of the scale not given here; actives 0.43% (n = 340,000); AID 504454;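 active = response above a set limit, near 3 SD of response in nonfluorescent compounds, cut at about 42% in these data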;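 note: stock transfer was 100 nL into about 11 µL; a reference agonist was the positive control; negative values mostly stem from fluorescent compounds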
E coli growth = inhibitors of Escherichia coli growth | OD600 absorbance (test concentration not listed) | OD600, 23 h; stronger effect = lower value | actives 0.21% (n = 330,000);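 active = OD600 absorbance below the run mean of sample wells minus 3.6 SD, in any replicate, cut at about 0.56 in these data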;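 note: stock transfer was 300 nL into about 60 µL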
Ecoli rRNA inh = selective bacterial rRNA inhibition in E. coli; E. coli WT GFP vs humanized-ribosome RFP mutants, fluorescence, 24 h; stronger effect = lower value; DMSO median 0, no signal -100; GFP signal change (wild-type ribosome), % (concentration not given with the values); actives 1.6% (n = 350,000); AID 720706;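 active = significant combined selectivity score with lowered wild-type GFP, culture density cut under 30%, mutant RFP and density less affected; inactive = any of these conditions unmet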; note: one replicate is shown; some compounds called inactive have numbers as strong as hits
ALR inh = blocks human ALR sulfhydryl oxidase activity. purified ALR, DTT oxidation, H2O2 HRP-luminol luminescence. inhibition, % (concentration not given with the values). actives 3.8% (n = 290,000). P55789;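 active = mean and each replicate at 75% or more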;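 note: stock transfer was 7.5 nL into about 7.5 µL; 0% = neutral wells and 100% = wells with inactivated enzyme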
HNF4A DNA FP = change in binding of human HNF4 alpha to DNA. HNF4a-FITC DNA binding, fluorescence polarization, 1 h. activity change, % at 10 µM. actives 0.3% (n = 360,000); in the data active = activity change above about 30%, passing the limit was not always enough;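 note: controls were the assay level and a saturating level of protein; the project sought stronger binding though the title names inhibitors; some compounds called inactive have numbers as strong as hits; positive values seem to mean higher polarization but the record does not say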
Target sequence (P41235 whole entry, looked up): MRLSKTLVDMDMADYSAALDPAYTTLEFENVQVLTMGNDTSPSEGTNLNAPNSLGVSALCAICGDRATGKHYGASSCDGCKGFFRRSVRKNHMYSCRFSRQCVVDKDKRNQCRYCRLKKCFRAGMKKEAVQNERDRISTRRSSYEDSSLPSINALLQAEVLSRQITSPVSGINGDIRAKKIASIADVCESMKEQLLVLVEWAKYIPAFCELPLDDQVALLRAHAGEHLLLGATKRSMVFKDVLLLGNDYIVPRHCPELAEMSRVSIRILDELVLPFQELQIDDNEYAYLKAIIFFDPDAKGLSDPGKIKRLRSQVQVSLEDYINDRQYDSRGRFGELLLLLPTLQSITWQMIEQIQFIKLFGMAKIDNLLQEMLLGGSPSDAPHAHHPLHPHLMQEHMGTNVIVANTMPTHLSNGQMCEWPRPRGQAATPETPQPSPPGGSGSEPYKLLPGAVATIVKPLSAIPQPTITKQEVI
FGF22 binding = binders of recombinant human FGF22 by thermal shift; Q9HCT0; calls only at 9.99 µM; SYPRO orange fluorescence; percent of sucrose octasulfate shift, DMSO zero; actives 1.5% (n = 340,000);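 active = melting point raised past a set limit in the mean and every replicate; three in four hits are not shown here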
Target sequence (Q9HCT0 whole entry, looked up): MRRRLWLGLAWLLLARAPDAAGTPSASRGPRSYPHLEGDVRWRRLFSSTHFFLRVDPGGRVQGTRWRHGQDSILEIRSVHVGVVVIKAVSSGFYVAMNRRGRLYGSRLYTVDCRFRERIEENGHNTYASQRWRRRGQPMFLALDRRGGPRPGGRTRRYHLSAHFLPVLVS
UCH37 DUB inh = human UCH37 deubiquitinating enzyme inhibition | Q9Y5K5 | purified proteasome/UCH37, Ub-AMC cleavage fluorescence | inhibition, % (test concentration not listed) | actives 0.33% (n = 330,000) | AID 588478;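 active = mean of two replicates above 20%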;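 note: 0% = compound-free wells with enzyme and 100% = wells lacking proteasome; stock transfer was 100 nL into about 20 µL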
Target sequence (Q9Y5K5 whole entry, looked up): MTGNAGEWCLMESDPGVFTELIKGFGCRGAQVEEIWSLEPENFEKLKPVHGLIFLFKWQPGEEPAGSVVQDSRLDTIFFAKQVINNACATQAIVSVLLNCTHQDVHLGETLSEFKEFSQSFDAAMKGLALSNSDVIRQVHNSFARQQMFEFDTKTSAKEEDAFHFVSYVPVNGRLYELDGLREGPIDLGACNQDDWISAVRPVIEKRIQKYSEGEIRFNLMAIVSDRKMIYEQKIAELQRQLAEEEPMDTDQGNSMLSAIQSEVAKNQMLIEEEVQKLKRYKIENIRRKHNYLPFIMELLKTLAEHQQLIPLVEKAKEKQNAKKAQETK
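System: Proteasome-associated human UCH37 deubiquitinase; Input: 0.15 nM proteasome in added enzyme buffer; Also added: Ub-AMC substrate from 1 µM stock; Incubation: 30 min compound-proteasome preincubation then 25 min substrate reaction, room temperature; Detection: fluorescence, ex 355 nm, em 460 nm; Read-out: % inhibition of Ub-AMC cleavage fluorescence; Benchmarks: no-proteasome and no-compound wells.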
Ecoli rRNA inh OD600 = recorded beside Ecoli rRNA inh, whose call it bears; OD600 change, %; measured here: OD600 growth;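 optical density of the mix in the first replicate; 0 = DMSO median and -100 = no signal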
Ecoli rRNA inh RFP = further read-out of Ecoli rRNA inh, marked with its call; RFP signal change, %; measured here: RFP humanized mutant strains;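 first replicate; 0 = DMSO median and -100 = no signal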
Starred values were filed as active, the others as inactive; i = inactive; . = no result given. Some of the compounds tested, so the mix of outcomes need not match the whole.

Value order – Beta2AR agonist, ALR inh, Ecoli rRNA inh RFP, HNF4A DNA FP, E coli growth, Ecoli rRNA inh OD600, FGF22 binding, Ecoli rRNA inh, UCH37 DUB inh
Cc1cc(C)c2sc(N(CCN(C)C)C(=O)CCS(=O)(=O)c3ccccc3)nc2c1
  1.2, 6.3, 1.3, 0.1, 0.65, 7.9, i, 9.0, 7.2
O=C1C2CCCN2C(c2ccc(F)c(F)c2)N1c1cccc(Cl)c1 (stereo not drawn)
  -4.6, -1.2, -2.0, -2.0, 0.719, -1.7, i, 0.3, 3.1
O=C(Nc1ccc(F)cc1F)c1ccc2c(=O)n3c(nc2c1)CCC3
  -6.3, ., -3.5, 0.9, 0.683, 3.2, ., 1.3, 3.0
CCOC(=O)C1(CC)NC(c2ccc(OC)cc2OC)C2C(=O)N(C)C(=O)C21 (stereo not drawn)
  0.6, ., -8.6, 5.1, 0.649, -11.1, i, -3.1, 1.9
Cc1c(C(N)=O)c(-c2ccccc2)nn1-c1ccccc1
  -14.9, ., ., 3.1, 0.658, ., ., ., 2.1
Cc1ccc(S(=O)(=O)N2C[C@H]3[C@H]4C(=O)N(c5ccccc5)C(=O)[C@H]4C[C@H](OC(=O)NC4CCCC4)[C@@]3(O)C2)cc1
  ., ., 0.6, 0.8, ., 4.7, ., 1.8, .
Cc1cccc(N2C(=O)CS/C2=N\NC(=O)c2ccc(Br)cc2)c1C
  -6.3, 0.0, ., 3.0, ., ., ., ., .
CCOc1cc(CNC)ccc1OCC(=O)NC(C)(C)C
  2.1, ., -1.3, -2.3, 0.686, 21.9, i, 17.8, 2.3
Cc1ccc2oc(-c3ccccc3)c(C(=O)O)c(=O)c2c1
  -0.1, 8.7, ., 0.2, 0.726, ., ., ., 1.2
CC(C(=O)Nc1ccc(N2CCOCC2)cc1)N1C(=O)NC(C)(C)C1=O (stereo not drawn)
  0.1, 30.5, -1.5, 1.7, 0.679, 15.5, i, 7.5, -0.8
Clc1cccc(Cl)c1/C=N/Nc1c(Cl)cncc1Cl
  3.1, 1.1, -1.6*, -3.0, ., 2.8*, i, -16.4*, .
Cc1cc(C)nc(SCC(=O)NC(=O)c2ccccc2O)n1
  0.5, -3.6, -1.7, 2.8, 0.72, 22.0, i, 9.9, 2.6
CCC(C)Sc1nnc(CSc2nc(C)cc(C)n2)n1C (stereo not drawn)
  0.8, -8.8, 0.2, -3.6, 0.685, -2.2, ., -1.1, -0.5
O=C1c2ccccc2C(c2nc3ccccc3[nH]2)N1c1ccccn1 (stereo not drawn)
  ., ., 3.5, -5.2, ., 16.5, i, 7.7, .
CC(C)Oc1ccccc1C1CC(=O)Nc2cc3c(cc21)OCCO3 (stereo not drawn)
  32.6, ., ., 0.7, 0.697, ., ., ., 3.2
COC(=O)c1cc2n(n1)CCCNC2=O
  4.0, 1.6, 1.6, -1.3, 0.704, 11.3, ., 19.5, 4.5
Cc1ccc(N/N=C(\C#N)C(=O)c2ccsc2)cc1
  2.7, 17.8, 4.6, 1.6, ., -10.6, i, -11.2, .
COc1ccc(CCNC(=O)c2ccc(CNS(=O)(=O)c3cccc(Cl)c3)cc2)cc1OC
  11.4, 0.5, ., 0.3, 0.628, ., ., ., 1.7
O=C(CC(c1ccccc1)c1ccccc1)NCCOCc1ccccc1
  4.3, ., -1.0, 0.4, 0.681, -13.2, i, -14.9, 3.6
COC(=O)c1ccc(N2CCOCC2)c(F)c1
  -4.6, -3.1, ., 3.0, 0.671, ., ., ., 5.1
CSc1ccccc1C(=O)C1CCCN(C(=O)c2ccc(N3CCOCC3)cc2)C1 (stereo not drawn)
  8.8, 10.5, -1.5, 0.9, 0.686, -5.1, i, 2.2, 1.3
CC(C)Oc1ccccc1C1Nc2ccccc2C(=O)N1c1ccc2c(c1)OCCO2 (stereo not drawn)
  18.7, -1.8, ., 0.1, 0.702, ., ., ., -15.8
O=C(c1ccc(NS(=O)(=O)c2ccccc2)cc1)N1CCOCC1
  1.6, -4.7, -2.3, 2.8, 0.66, 3.2, i, 9.4, 2.6
CC(=O)c1nn(-c2ccccc2)cc1C(=O)c1cccc(Br)c1
  -3.2, -2.8, 4.5, 0.4, 0.678, 6.6, i, 3.2, 0.3
Cc1[nH][nH]c(=O)c1C(c1ccc(Cl)cc1)c1c(C)[nH][nH]c1=O
  -0.6, 12.8, 2.5, 3.0, 0.668, 5.3, i, 11.9, 3.2
O=C(OCc1cc([N+](=O)[O-])cc2c1OCOC2)c1cccnc1SC(F)F
  -3.0, ., 5.0, -1.1, 0.714, 0.7, i, 2.2, 4.2
CCCCN(C(C)=O)c1ccc(S(=O)(=O)NC2=NCCCCC2)cc1NC(C)=O
  1.4, -15.8, -1.4, 3.0, 0.608, 2.8, i, -1.2, 2.4
CC(C)(C)c1cc(C(=O)C[n+]2ccc(C(=O)NCCCO)cc2)cc(C(C)(C)C)c1O
  -2.2, 41.3, 1.3, 0.8, 0.677, -7.0, i, -3.6, 11.5
O=C(Nc1ccccc1)c1nccn1Cc1ccc(F)cc1
  -8.6, 0.7, -4.1, -3.6, 0.664, -23.6, i, -20.5, 4.2
Nc1cc(=O)[nH]c(SC/C=C/c2ccccc2)n1
  -2.2, -0.8, ., 1.9, ., ., ., ., -1.3
CC(=O)Nc1ccc(CN(C)c2c(C)nc3ccc(C(=O)N(C)Cc4ccccc4)cn23)cc1
  ., ., -0.5, 2.2, ., -8.2, i, -1.0, .
Cc1c(Cl)cccc1NC(=S)NCC(O)c1ccccc1 (stereo not drawn)
  2.4, 2.3, -2.6, -1.3, 0.605, 4.7, i, 3.0, 2.8
CCC1COCCS(=O)(=O)N1Cc1ccccc1 (stereo not drawn)
  6.8, 1.6, -5.0, -3.2, ., 5.3, i, 2.9, 3.8
CCN(CC(=O)Nc1cc(Cl)ccc1C)C(=O)C1CC(=O)N(Cc2ccccc2)C1 (stereo not drawn)
  -6.0, -1.9, 0.5, -0.8, 0.617, -3.9, i, 1.2, -0.2
CCC1CCCCN1CC(O)COCc1cccc(OC)c1 (stereo not drawn)
  -1.3, -5.5, -2.1, -1.9, 0.691, 12.3, i, 7.6, 1.1
O=C(CN1CCCCCC1)Nc1ccccc1Cl
  2.1, -15.8, -2.1, -2.2, 0.619, 2.7, i, 6.4, 1.7
Cc1ccc(NC(=O)C2CCCN2S(=O)(=O)c2cccc3cccnc23)c(C)c1 (stereo not drawn)
  -0.2, -7.3, 1.4, 5.6, 0.684, -0.1, i, -3.0, 1.6
CCNC(=O)C1(C)CCN(C(=O)c2cccc(OC(C)=O)c2C)C1 (stereo not drawn)
  ., ., 0.2, -1.3, ., 2.2, i, 4.3, .
COc1cccc(NC(=O)N2CCC(N3CCCCC3)CC2)c1
  -2.4, -27.2, ., 2.1, 0.68, ., ., ., 5.1
O=C(CCc1ccc(O)cc1)c1c(O)cc(O)cc1O[C@@H]1O[C@H](CO)[C@@H](O)[C@H](O)[C@H]1O
  4.1, 81.0*, ., 0.9, ., ., i, ., -0.2
CC1=NC(=O)C(N=Nc2ccccc2)N1c1ccccc1 (stereo not drawn)
  -1.3, -14.4, ., -1.4, 0.787, ., ., ., 0.0
CC1(C(=O)NCCOc2ccccc2Cl)CC1(Cl)Cl (stereo not drawn)
  5.5, -7.9, -2.8, -1.1, 0.695, -4.4, i, 8.4, 5.4
COc1ccc(CCC(=O)N/N=C(\C)c2ccc3c(c2)OCO3)cc1
  3.4, -2.0, 1.3, -2.9, ., -5.8, i, -4.2, .
Cc1cc(C(=O)NCc2ccccc2F)cs1
  8.6, -1.6, ., 0.2, 0.657, ., ., ., 1.7
NC(=S)N/N=C/c1coc2ccc(Cl)cc2c1=O
  1.9, 4.0, -1.6, -4.2, ., -13.8, ., -3.2, .
CCC/C=C/c1ccc(CN2C(C)C(=O)N(Cc3cn(Cc4ccco4)nn3)CCS2(=O)=O)cc1 (stereo not drawn)
  ., ., 1.8, 0.7, ., 11.9, i, -5.8, .
CCCNC(=O)C1(C)CCCN(Cc2csc(-c3ccccc3)n2)C1 (stereo not drawn)
  ., ., -2.7, -0.7, ., -11.8, i, -7.7, .
C[C@H](NC(=O)c1ccc(C(C)(C)C)cc1)C(=O)N1CCOCC1
  -10.9, 2.8, -2.2, 0.1, 0.693, 6.1, i, -0.1, 0.4
Cc1ccc(-c2cc(-c3ccccc3[N+](=O)[O-])[nH]n2)c(O)c1
  11.2, 90.4*, -37.1, 1.4, 0.617, -80.6, i, -58.6, 5.5
Cc1ccc(OCc2nnc(SCC(=O)c3cccc([N+](=O)[O-])c3)n2C)cc1
  9.8, -1.4, ., -0.3, 0.66, ., ., ., 1.7
COC(=O)Cn1c(=NC(=O)C(C)(C)C)sc2c(C)cc(C)cc21
  10.5, 0.7, 5.2, 1.3, 0.695, 4.0, i, -1.6, 1.3
CC(C)(C)c1cc(C(C)(C)C)n(-c2ccccc2)n1
  11.2, ., ., -2.5, 0.707, ., ., ., 5.4
CC[C@]12c3[nH]c4ccccc4c3CCN1C(=O)C(CC(=O)NCCC1=CCCCC1)C[C@@H]2C(=O)N1CCN(C(=O)C2CC2)CC1 (stereo partly drawn)
  -2.7, ., 1.5, 0.2, 0.717, 14.9, i, 14.8, 1.0
Cc1ccccc1-c1noc(-c2ccccc2C(=O)O)n1
  2.0, -3.7, -4.7, -1.8, 0.657, -3.2, i, -0.3, 3.3
Cc1ccc(-c2ccc(=O)n(CC(=O)N3CCN(c4cccc(C)c4)C(C)C3)n2)cc1 (stereo not drawn)
  5.8, 22.9, 8.3, -2.1, 0.7, -23.0, i, -17.0, 1.2
Cc1cc(Cl)ccc1OCCCC(=O)NNC(=O)c1ccccc1O
  -2.1, -23.0, 0.2, -0.4, 0.711, 5.0, i, 1.8, -0.2
COC(=O)c1ccc(NC(=O)c2cccc(NC(=O)c3ccco3)c2)cc1
  -7.8, 19.1, -1.6, 0.0, 0.646, 4.3, i, 1.6, 5.4
O=C(Nc1ccccc1N1CCCCC1)c1cc(S(=O)(=O)N2CCOCC2)ccc1Cl
  1.0, -1.5, -1.2, 0.1, 0.724, 1.9, i, 0.9, 0.3
Cc1ccc(NC(=O)CNC(=O)c2cccc(C)c2)nc1
  -2.2, -0.9, 0.2, 1.4, 0.7, 5.9, i, 8.4, 3.8
O=C(c1ccco1)N1CCN(CC(O)COc2ccc(Br)cc2)CC1 (stereo not drawn)
  7.6, -7.0, 0.9, 5.4, 0.649, 0.6, i, -2.2, 3.3

Other structures follow.
Value order – Beta2AR agonist, ALR inh, Ecoli rRNA inh RFP, HNF4A DNA FP, E coli growth, Ecoli rRNA inh OD600, FGF22 binding, Ecoli rRNA inh, UCH37 DUB inh
CC(C)CCNC(=O)CCCc1ccccc1
  -3.4, -9.6, 0.4, 1.9, 0.653, -15.2, i, 2.6, 2.5
CCC(CO)Oc1cc(NC(=O)c2ccccc2N)c2ncn(C(C)C)c2c1 (stereo not drawn)
  -5.5, -37.8, -0.4, -0.5, 0.641, -3.0, i, -11.0, -4.0
COc1cccc(OC)c1/C(O)=C(\C#N)c1nc2ccccc2[nH]1
  4.2, 28.3, 3.8, 4.5, ., -2.3, ., -4.8, .
O=C(COc1ccccc1C(=O)NCC1CCCO1)Nc1ccc(Cl)cc1Cl (stereo not drawn)
  1.6, 1.2, 0.5, -3.4, 0.693, 8.3, i, 9.4, 0.6
CCC(=O)c1ccc(OCC(=O)Nc2nc(-c3cccnc3)cs2)cc1
  3.5, -1.3, -1.0, -9.7, 0.672, 2.1, i, -0.6, 4.8
CCOn1c(=O)c[n+]([O-])c2ccccc21
  9.8, -3.5, 0.9, 2.5, 0.683, 10.2, i, 10.2, -17.6
COc1ccc([N+](=O)[O-])cc1NC(=O)CCSCCc1ccccn1
  4.2, -14.4, -1.6, 2.6, 0.646, -7.0, i, -5.8, 6.8
